Source: PubChem BioAssay (National Center for Advancing Translational Sciences (NCATS))
miR-21 FLuc = miR-21 reporter, rising signal. AID 2288. 340,000 tested, under 10 active. Potency, µM (highest dose often 38.3 µM), without a hit: at the top dose reporter change, positive = more light. HeLa miR-21 FLuc reporter, luciferase, 48 h; active = well fitted rising curve with a large enough effect; inconclusive = small, poorly fitted or top-dose-only effect; inactive = no such curve, though single readings can be large or run the other way;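 also: % of control where 0% means no effect; miR-21 action dims this reporter so a rising signal means less miR-21 action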
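HeLa miR-21-FLuc reporter line, endogenous miR-21; 2000 cells/well in DMEM/10% FBS; compound titration up to ~40uM final, 48 h, 37 degree Celsius; luciferase detection reagent, 15 min lysis, CCD luminescence.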
* marks the source's active call; other numbers are inactive results; ? = inconclusive. The list is partial, so the mix of outcomes need not match the whole.

SMILES	miR-21 FLuc
COC(=O)c1c(SCC(=O)Nc2ccccc2OC)[nH]c2ccccc2c1=O	13%
COc1ccccc1OC(C)C(=O)Nc1c(C(=O)c2ccc(Cl)cc2)oc2ccccc12 (stereo not drawn)	0%
COc1cccc(Cn2c(=O)n(CC3CCC(C(=O)NC(C)C)CC3)c(=O)c3sccc32)c1 (stereo not drawn)	-1%
COc1ccc(CNc2ncnc3c2c(-c2ccccc2)cn3-c2cccc(C)c2)cc1	-2%
CCc1ccc(NCc2cc3cc4c(cc3n(CC(=O)Nc3ccccc3C)c2=O)OCCO4)cc1	-2%
Cc1ccccc1C(=O)Nc1sc2c(c1C(=O)NCc1ccco1)CCC(C(C)(C)C)C2 (stereo not drawn)	-7%
O=C(NCCc1ccc(Cl)cc1)c1cnc2sc(N3CCCCC3)nn2c1=O	-2%
Cc1cc(C(=O)N2CCN(c3cccc(C)c3C)CC2)c2c(C)nn(-c3ccccc3)c2n1	8%
COc1cccc(C(=O)N(Cc2ccc(C)o2)C2CCS(=O)(=O)C2)c1 (stereo not drawn)	-1%
CCc1ccccc1NC(=O)Nc1ccc2c(c1)N(CC)C(=O)c1ccccc1S2	-18%
Cc1cc(C)cc(N(CC(=O)NCc2ccccc2Cl)S(=O)(=O)c2c(C)noc2C)c1	8%
CCOC(=O)c1ccccc1NC(=O)NCc1c(-n2cccc2)sc2c1CCCC2	-3%
N#Cc1cc2c(=O)n3ccccc3nc2n(-c2nnc(SCc3ccccc3F)s2)c1=O	1%
CC(=O)c1ccc(N2CCN(C(=O)CCc3nnc4n(C)c(=O)c5sccc5n34)CC2)cc1	-3%
CCOc1ccccc1CN1CCc2nc(N3CCN(c4ccccc4F)CC3)ncc2C1	?
COc1ccc(-c2cc(C(=O)Nc3ccn(Cc4ccc(C)cc4)n3)no2)cc1OC	-10%
CC(C)c1nn2c(=O)cc(COC(=O)c3ccc(NC(=O)COc4ccccc4)cc3)nc2s1	-4%
O=C(COc1ccc(F)cc1)Nc1ccc(Cl)c(-c2nc3ccccc3[nH]2)c1	?
CCOc1ccc(NC(=O)CCc2nc3cccnc3n2-c2ccccc2)cc1	6%
CCOCCCn1c(=N)c(S(=O)(=O)c2ccc(C)cc2)cc2c(=O)n3ccccc3nc21	-13%
CNC(=O)C1CCC(Cn2c(=O)c3sccc3n(CC(=O)N3CCCC3)c2=O)CC1 (stereo not drawn)	1%
CCOc1ccc(CC(=O)Nc2cccc(-c3nc4cccnc4s3)c2C)cc1	23%
O=C(NCC(c1cccnc1)N1CCOCC1)C(=O)Nc1ccc(F)cc1 (stereo not drawn)	29%
CC(C)(C)OC(=O)N1CCC(c2c(C(=O)NCc3ccccc3)cnn2-c2cccc(F)c2)CC1	27%
Cc1cc(=O)n2c(C(=O)Nc3ccc(Br)cc3)c(C(=O)Nc3ccccc3)sc2n1	-1%

Carrying on:
SMILES	miR-21 FLuc
CCCCOc1ccc(CNC(=O)c2ccc3c(c2)N(C)C(=O)C2CCCCN32)cc1 (stereo not drawn)	0%
O=C(CSc1nccn1Cc1ccc(Cl)cc1)Nc1ccc2c(c1)OCCO2	-13%
O=C(NCc1ccccn1)c1nn(-c2ccccc2F)nc1CO	27%
COc1ccc(Cn2c(SCC(=O)NCc3ccccc3)nc3ccccc32)cc1	20%
COc1ccc(CCNC(=O)c2cc(-c3ccc(Cl)cc3)on2)cc1OC	-3%
CCOc1ccc(-c2nnc(SCC(=O)Oc3ccccc3)o2)cc1	3%
Cc1cccc(CN2C(=O)c3ccccc3Sc3ccc(C(=O)NCCc4ccccc4)cc32)c1	9%
COc1ccccc1CCNC(=O)C(=O)NCC(c1ccco1)S(=O)(=O)c1ccc(F)cc1 (stereo not drawn)	18%
CCCCNC(=O)c1nn(C)c2c1CSc1ccccc1-2	-6%
COc1ccc(C(=O)NCCc2csc(-c3ccc(Cl)cc3)n2)c(OC)c1	2%
COc1ccc(C2c3c(n(C)c4ccccc34)C(=O)N2CC(=O)Nc2c(C)cc(C)cc2C)cc1 (stereo not drawn)	14%
CCOC(=O)c1cc(S(=O)(=O)N2CCN(c3cc(Cl)ccc3C)CC2)[nH]n1	-5%
CCOc1ccc(OCC)c(NC(=O)CCc2nc3cccnc3n2-c2ccccc2)c1	6%
COc1ccc(C(=O)Nc2nonc2-c2ccc(OC)c(OC)c2)cc1Cl	6%
COc1ccc(S(=O)(=O)N2CCN(c3ccc(Cl)c(Cl)c3)CC2)c2ccccc12	3%
CCCn1ccc2c(OCC(=O)NCc3ccc(C)cc3)cccc2c1=O	-3%
COc1ccc(-c2cc(NCc3ccc(C)cc3)n3cnnc3n2)cc1	?
Cc1ccccc1C(=O)Nc1ccc2nc(Nc3cccc(C(F)(F)F)c3)cc(C)c2c1	?
COc1ccccc1CNc1nc(-c2ccco2)nn1C(=O)c1ccccc1[N+](=O)[O-]	-27%
COc1ccc2c(CNCc3cccs3)c(C(=O)O)n(Cc3ccc(F)cc3Cl)c2c1	14%
CCCCN(C)CC(O)Cn1cc(/C=C/C(=O)c2ccc(Br)cc2)c2ccccc21 (stereo not drawn)	?
CCC1CN(C(=O)N2CCC(C(=O)Nc3cc(C)ccc3C)CC2)c2ccccc2O1 (stereo not drawn)	26%
COc1ccc(-c2cn3nc(N4CCCC(C(=O)Nc5cccc(OC)c5)C4)sc3n2)cc1 (stereo not drawn)	12%
CCN(c1cccc(C)c1)S(=O)(=O)c1nnc(NC(=O)C2CCCCC2)s1	-52%
Cc1cccc2c1-c1sc(C(=O)N3CCN(c4ccc(F)cc4)CC3)cc1CO2	0%

Next part.
SMILES	miR-21 FLuc
CCc1cccc(C)c1NC(=O)C(CC)n1nc(C)c2c(C)n(-c3ccccc3)nc2c1=O (stereo not drawn)	5%
COc1ccc(C(CC(=O)Nc2ccc(C(C)=O)cc2)N2Cc3ccccc3C2=O)cc1 (stereo not drawn)	-59%
CCc1ccc(CN2CCc3nc(Nc4ccc5c(c4)OCCO5)ncc3C2)cc1	20%
CCCOc1ccc(-c2nn(-c3ccccc3)cc2C2NC(=O)NC(C)=C2C(=O)OC)cc1C (stereo not drawn)	-10%
Cc1cccc(CC(=O)Nc2cccc(-c3cn4cccnc4n3)c2)c1	-23%
C=CCC(CC=C)(CNC(=O)C(=O)Nc1ccc(C(=O)OCC)cc1)c1ccccc1	4%
Brc1ccccc1-n1ncc2c1ncn1nc(Cc3ccccc3)nc21	-45%
Cc1ccc(S(=O)(=O)c2nc(-c3cccc(C)c3)oc2N2CCCCC2)cc1	4%
O=C(CN1c2ccccc2S(=O)(=O)c2ccccc21)Nc1ccccc1Cl	-17%
CCc1ccc(S(=O)(=O)Nc2ccc3c(c2)sc(=O)n3C)cc1	22%
CCc1ccc(NC(=O)c2nc(S(=O)(=O)Cc3ccccc3)ncc2Cl)cc1	?
COc1ccc(N2CC(NC(=O)CCCc3ccccc3)CC2=O)cc1 (stereo not drawn)	-6%
CCc1ccc(CNC(=O)c2cc3n(n2)CCCN(Cc2ccccc2)C3=O)cc1	-5%
COc1ccc(C(=O)c2sc3nc(-c4ccc(F)cc4)ccc3c2N)cc1	-20%
CCN(C(=O)c1cn(-c2ccc(OC)cc2)c(=O)c2ccccc12)c1cccc(Cl)c1	18%
CCC(=O)N1CCc2cc(Br)cc(S(=O)(=O)CCC(=O)NCCc3ccc(OC)c(OC)c3)c21	2%
COc1cc2cc(CNc3ccc(C)cc3)c(=O)n(CC(=O)Nc3ccc(C(C)C)cc3)c2cc1OC	-8%
COCCNC(=O)CSc1nc(-c2ccccc2)[nH]c1-c1ccc(OC)cc1	7%
COc1ccc(OCc2nc3ccccc3n2C(C)c2ccccc2)cc1 (stereo not drawn)	-6%
Cc1ccc(N2CCN(C(=O)CCS(=O)(=O)c3cc4c(cc3Cl)NC(=O)CO4)CC2)c(C)c1	21%
CCOc1ccc(-c2cc(OC(=O)c3ccc(F)cc3)c3c(C)oc(C)c3c(=O)c2)cc1	0%
O=C(CSc1nc2c([nH]c3ccccc32)c(=O)n1-c1cccc(Cl)c1)c1ccccc1	-21%
CCOc1ccc(NC(=O)C(C)Sc2nc3ncccc3o2)cc1 (stereo not drawn)	-46%
Cc1ccc(OCC(=O)Nc2c(Cl)ccc3nsnc23)cc1C	11%
CCCCOc1ccc(S(=O)(=O)n2nc(C)c(S(=O)(=O)N3CCC(C)CC3)c2C)cc1	1%

Additional records
SMILES	miR-21 FLuc
CCOc1cc(C(=O)Nc2nnc3n2CCS3)cc(OCC)c1OCC	-1%
CCCCn1c(NCc2ccc(OC)cc2O)nc2ccccc21	0%
CC1=C(c2ccc(C)cc2)S(=O)(=O)N=C1N1CCN(c2ccccc2)CC1	-5%
CC1CCc2c(sc(NC(=O)C3c4ccccc4Oc4ccccc43)c2C(=O)OC(C)C)C1 (stereo not drawn)	-1%
CCOC(=O)c1cnc2cc(C(F)(F)F)ccc2c1N1CCN(c2cccc(Cl)c2)CC1	-7%
Cn1c(=O)c2c(-c3ccccc3)n3c4ccccc4nc(-c4ccccc4)c3c2n(C)c1=O	-15%
Cc1cccc(Nc2nnc(-c3ccc(C)c(S(=O)(=O)NCC4CCCO4)c3)c3ccccc23)c1 (stereo not drawn)	21%
COCCn1c(=O)[nH]c2cc(C(=O)NCc3ccccc3Cl)ccc2c1=O	?
CC1Cc2ccccc2N1S(=O)(=O)c1nnc(NC(=O)c2ccccc2Br)s1 (stereo not drawn)	-13%
CCOC(=O)c1cc(-c2ccc(OC)c(S(=O)(=O)Nc3ccc(OC)cc3OC)c2)on1	2%
CCOC(=O)N1CCN(Cc2nc3cc(NC(=O)CC)ccc3n2C(C)C)CC1	?
CC(C)CCNC(=O)C(=O)Nc1c2c(nn1-c1ccc(Cl)cc1)CSC2	-1%
CCc1ccc(NC(=O)c2cc3ccccn3n2)cc1	22%
CCn1c(C)c(C2N3CC4(C)CN2CC(C)(C3)C4=O)c2ccccc21 (stereo not drawn)	-1%
COc1ccccc1Cn1cc(C(=O)c2ccc(Cl)cc2)c(=O)c2ccccc21	?
CCCOC(=O)c1c(NC(=O)c2nc3ncccn3n2)sc(C(=O)OCC)c1C	-7%
CCc1cccc(OCC(=O)Nc2ccc(S(=O)(=O)Nc3cc(C)nc(C)n3)cc2)c1	-4%
Cc1cccc(C(=O)Nc2cc3c(cc2N2CCOCC2)n(C)c(=O)n3C)c1	-5%
COc1ccc(Nc2oc(-c3ccc(COc4ccc(OC)cc4)o3)nc2C#N)cc1	-1%
O=C(c1ccc2c(c1)OCCO2)N(Cc1cccnc1)c1nc2ccc(Cl)cc2s1	-31%
CCOC(=O)c1[nH]c(C)c(CCC(=O)NCc2ccc(C)cc2)c1C	-6%
O=C(Nc1ccc2c(c1)N(C1CCCC1)C(=O)c1ccccc1S2)c1ccccc1	?
Cc1nn2c3c(cnc2c1-c1ccc(Cl)cc1)C(=O)CC(c1ccc(C(C)C)cc1)C3 (stereo not drawn)	-3%
CC1CCN(S(=O)(=O)c2ccc3c(c2)CCN3C(=O)Nc2ccccc2Br)CC1	-9%
Oc1c(C(c2ccccc2)N2CCOCC2)sc2nc(-c3ccco3)nn12 (stereo not drawn)	-5%

(further entries)
SMILES	miR-21 FLuc
O=C1OC(C(=O)Nc2cccc(Br)c2)Cc2ccccc21 (stereo not drawn)	-45%
CCOc1ccc(OC(=O)c2cn(-c3ccc(C)cc3)c(=O)c3ccccc23)cc1	0%
COc1cccc(CNC(=O)c2cc(S(=O)(=O)N3CCCCCC3)cn2C)c1	-7%
COc1cccc(Cn2c(C)c(CNC3CCCCC3)c(C(=O)O)c2C)c1	0%
Cc1cccc(C(=O)Nc2sc3c(c2C(=O)NCc2ccco2)CCCC3)c1	-5%
CCc1nn(CC(=O)NCCCOC)c(=O)c2cc3occc3n12	-2%
Cc1ccc(C(=O)NC2(C(F)(F)F)N=C(c3ccccc3)N(Cc3ccccc3)C2=O)cc1 (stereo not drawn)	2%
CCOc1ccc(-c2nnc(SCC(=O)NCc3ccc(C)cc3)nc2-c2ccc(OCC)cc2)cc1	-3%
COc1ccc2sc(N(Cc3cccnc3)C(=O)COc3ccccc3)nc2c1	-29%
Cc1cccc(C)c1OCc1nc2c3c(-c4ccccc4)c(-c4ccccc4)oc3ncn2n1	3%
CCc1cc(C(=O)Nc2c(C)nn(Cc3ccccc3Cl)c2C)no1	-3%
CCOc1ccc(N(Cc2ccccc2)C(=O)c2nc(S(C)(=O)=O)ncc2Cl)cc1	?
CCOc1cc(C(=O)N2CCc3c([nH]c4ccccc34)C2c2ccccc2)cc(OCC)c1OCC (stereo not drawn)	18%

Gathered by group: the compounds so far containing fluorine.
SMILES	miR-21 FLuc
N#Cc1cc2c(=O)n3ccccc3nc2n(-c2nnc(SCc3ccccc3F)s2)c1=O	1%
CCOc1ccccc1CN1CCc2nc(N3CCN(c4ccccc4F)CC3)ncc2C1	?
O=C(COc1ccc(F)cc1)Nc1ccc(Cl)c(-c2nc3ccccc3[nH]2)c1	?
O=C(NCC(c1cccnc1)N1CCOCC1)C(=O)Nc1ccc(F)cc1 (stereo not drawn)	29%
CC(C)(C)OC(=O)N1CCC(c2c(C(=O)NCc3ccccc3)cnn2-c2cccc(F)c2)CC1	27%
O=C(NCc1ccccn1)c1nn(-c2ccccc2F)nc1CO	27%
COc1ccccc1CCNC(=O)C(=O)NCC(c1ccco1)S(=O)(=O)c1ccc(F)cc1 (stereo not drawn)	18%
Cc1ccccc1C(=O)Nc1ccc2nc(Nc3cccc(C(F)(F)F)c3)cc(C)c2c1	?
COc1ccc2c(CNCc3cccs3)c(C(=O)O)n(Cc3ccc(F)cc3Cl)c2c1	14%
Cc1cccc2c1-c1sc(C(=O)N3CCN(c4ccc(F)cc4)CC3)cc1CO2	0%
COc1ccc(C(=O)c2sc3nc(-c4ccc(F)cc4)ccc3c2N)cc1	-20%
CCOc1ccc(-c2cc(OC(=O)c3ccc(F)cc3)c3c(C)oc(C)c3c(=O)c2)cc1	0%
CCOC(=O)c1cnc2cc(C(F)(F)F)ccc2c1N1CCN(c2cccc(Cl)c2)CC1	-7%
Cc1ccc(C(=O)NC2(C(F)(F)F)N=C(c3ccccc3)N(Cc3ccccc3)C2=O)cc1 (stereo not drawn)	2%
